From PubChem BioAssay
LANA-H2B inh = blocks KSHV LANA binding to histone H2A/H2B | Q9QR71 | actives 0.6% (n = 320,000) | cell-free LANA-H2A/H2B peptide, fluorescence polarization | inhibition, % (test concentration not listed); in the data active = inhibition mostly above about 10%, no sharp cut-off; inactive = mostly below about 6.7%;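 also: stock transfer was 7.5 nL into about 10 µL; 0% = median of vehicle wells and 100% = median of positive control wells; one replicate is shown; the record names a cut of 25% in any replicate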
Target sequence (Q9QR71 whole entry, looked up): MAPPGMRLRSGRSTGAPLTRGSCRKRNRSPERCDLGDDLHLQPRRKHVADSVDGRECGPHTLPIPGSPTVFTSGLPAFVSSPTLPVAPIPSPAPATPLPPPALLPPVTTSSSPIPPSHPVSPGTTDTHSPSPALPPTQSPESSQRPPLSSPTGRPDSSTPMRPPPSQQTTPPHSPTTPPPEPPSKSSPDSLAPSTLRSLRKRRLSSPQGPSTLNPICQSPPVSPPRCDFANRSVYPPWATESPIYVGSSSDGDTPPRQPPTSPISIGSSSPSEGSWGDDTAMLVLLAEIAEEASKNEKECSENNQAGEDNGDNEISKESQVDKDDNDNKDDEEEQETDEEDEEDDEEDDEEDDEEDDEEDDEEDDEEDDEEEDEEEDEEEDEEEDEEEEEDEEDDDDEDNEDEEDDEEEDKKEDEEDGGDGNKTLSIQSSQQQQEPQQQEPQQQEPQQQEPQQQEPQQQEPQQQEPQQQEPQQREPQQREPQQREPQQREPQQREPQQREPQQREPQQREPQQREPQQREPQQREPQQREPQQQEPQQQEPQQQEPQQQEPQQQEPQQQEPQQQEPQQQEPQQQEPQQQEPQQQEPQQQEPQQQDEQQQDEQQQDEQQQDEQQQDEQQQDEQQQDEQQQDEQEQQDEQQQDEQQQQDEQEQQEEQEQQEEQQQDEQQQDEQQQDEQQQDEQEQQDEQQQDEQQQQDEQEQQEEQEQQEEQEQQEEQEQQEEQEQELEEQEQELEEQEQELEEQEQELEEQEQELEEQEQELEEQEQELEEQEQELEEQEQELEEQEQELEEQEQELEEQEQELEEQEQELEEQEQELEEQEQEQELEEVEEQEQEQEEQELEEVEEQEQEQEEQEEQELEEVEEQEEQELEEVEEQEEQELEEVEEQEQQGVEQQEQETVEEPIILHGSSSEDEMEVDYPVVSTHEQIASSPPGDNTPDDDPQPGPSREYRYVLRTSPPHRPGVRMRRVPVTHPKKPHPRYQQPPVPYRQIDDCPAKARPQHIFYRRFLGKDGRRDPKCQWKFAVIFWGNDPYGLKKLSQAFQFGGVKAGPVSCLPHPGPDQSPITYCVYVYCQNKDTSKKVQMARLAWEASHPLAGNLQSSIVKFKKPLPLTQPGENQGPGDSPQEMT
MLL AF4-AF9 inh = MLL-AF4/AF9 protein interaction inhibition. P42568. AlphaScreen, biotin-AF4 peptide binding to FLAG-AF9. inhibition, % at 10 µM. actives 0.47% (n = 350,000). AID 651704;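 active = every replicate reaching a set inhibition limit, whatever the replicate mean, cut at about 25% in these data; inconclusive = mean inhibition reaches that limit but some replicates miss it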;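 also: 0% = plate neutral control median and 100% = total signal loss; the record names both 10 and 1 µM as test concentration; the first replicate is given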
Vif A3G = inhibitors of Vif binding to APOBEC3G peptide, primary screen, biochemical, TR-FRET, GST-Vif 1-94, biotin-A3G peptide, dose response retest (AID 1117319); inhibition, %, or IC50 in µM where a hit was titrated; actives 0.57% (n = 260,000); TR-FRET GST-Vif / biotin-A3G peptide binding; higher % means a stronger effect; test concentration not given here; strong numbers were not always called active;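 active = above the screen mean plus three standard deviations and confirmed in dose response; inconclusive = results disagree or hit not tested in dose response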;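 also: Vif residues 1-94 fused to GST binding biotinylated APOBEC3G peptide 110-148; 0% = full assay without inhibitor and 100% = GST in place of GST-Vif; retest series ran down from 100 µM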
Beta apoptosis = blocks beta cell apoptosis | INS-1E cytokine-induced death, ATP luminescence, 48 h; percent of positive-control rescue, neutral wells zero | protection from apoptosis, % (no concentration beside the values) | actives 0.8% (n = 300,000) | AID 435005;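 active = all replicates at 75% or more, or half of them and the mean; inconclusive = half reach 75% but not the mean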;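 also: 0% = cytokine-treated negative control wells and 100% = positive control rescue; higher means more ATP so stronger rescue from cytokine killing; wells of about 40 µL received 100 nL stock; the first replicate is given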
T cruzi repl = T. cruzi replication inhibition; T. cruzi beta-gal in NIH3T3, luminescence, 90 h; inhibition, % (concentration not given with the values); actives 1.4% (n = 300,000);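 active = mean inhibition across valid replicates above about 55%, limit read from the data; inconclusive = mean below that limit but half or more replicates reach it; inactive = mean below it, under half of replicates reach it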;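 also: signal also drops with host cell toxicity which is not excluded here; 0% = plate median of DMSO wells and 100% = zero luminescence signal; higher percent means less beta-gal luminescence so fewer parasites; stock transfer was 50 nL into about 50 µL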
A1 inh = inhibitors of the anti-apoptotic protein A1, read as caspase activation; MEF A1-2A-BIM cells, Caspase-Glo 3/7 luminescence, 3 h; percent of clofoctol response, vehicle zero; caspase activation, % (concentration not given with the values); actives 0.066% (n = 330,000);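 active = over half of replicate activation scores above 10%, or exactly half above 10 with the replicate mean above 10; inconclusive = replicate mean below 10 yet half the replicates above 10; inactive = over half of replicates below 10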;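 also: wells of about 30 µL received 50 nL stock; many hits fall short of the cut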
RanGTP-Imp inh = disruptors of Ran-importin-beta complex formation – biochemical, FRET, CFP-Ran, YFP-importin-beta, homogeneous, primary screen | cell-free CFP-Ran/YFP-importin-beta FRET ratio | inhibition, % (test concentration not listed) | actives 1.1% (n = 300,000);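 active = most replicates above 15%; inconclusive = exactly half above 15%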;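 also: 0% = DMSO wells and 100% = Ran loaded with GDP instead of GTP; wells of about 40 µL received 100 nL stock; the first replicate is given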
Calb FLC = C. albicans growth modulation with fluconazole. C. albicans CaCi-2 (fluconazole-resistant clinical isolate) + fluconazole, Alamar Blue growth, 48 h. growth inhibition, % (no concentration beside the values). actives 0.57% (n = 300,000). AID 1979;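 active = most replicates above 75%; inconclusive = exactly half above 75%; inactive = most below 75%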;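 also: all wells also contain fluconazole at 8 µg/ml as a sub-toxic cotreatment; 0% = median of DMSO wells and 100% = median of geldanamycin control wells; wells of about 8 µL received 7.5 nL stock; the first replicate is given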
Starred values were filed as active, the others as inactive; ? = inconclusive; . = not tested or not shown; & = joins results of further samples.

SMILES	LANA-H2B inh	MLL AF4-AF9 inh	Vif A3G	Beta apoptosis	T cruzi repl	A1 inh	RanGTP-Imp inh	Calb FLC
O=C(COC(=O)CCC1CCCC1)Nc1ccc(Cl)cn1	7.8	.	-1%	-4	-17	.	0.8	-2
O=C1OCC2=C1C(c1ccc(F)cc1)CC(=O)N2c1ccccc1 (stereo not given)	1.5	.	.	-14	-9	-0.5	-3.4	-8
Cc1cc(S(=O)(=O)NCC2CC2)c(Cl)cc1Cl	0.5	-5.8	-1%	-2	5	-0.2	-2.1	-4
CCOC(=O)c1sc(NC(=O)C(CC)OC(=O)C(CC(C)C)NC(=O)c2ccccc2)nc1C (stereo not given)	-2.6	.	15%	2	0	0.4	-1.6	0
CCOC(=O)c1[nH]c2ccc(F)cc2c1NC(=O)c1ccccc1C(=O)O	-1.9	-8.0	-1%	4	29	0.4	-3.9	85*
C/C=C(\C)CN1CCN(c2ccccc2)CC1	0.6	.	0%	-8	12	-0.3	6.1	-15
CCc1c(C)nc2ncnn2c1NCCc1ccc(OC)c(OC)c1	5.2	?	7%	13	-41	-0.3	2.5	4
COc1ccc(OCCCC(=O)OC(C)C(=O)Nc2ccc(S(N)(=O)=O)cc2)cc1 (stereo not given)	-3.0	-1.3	1%	-3	-2	-0.2	4.5	5
O=C(Nc1nccs1)c1ccc(Br)c(S(=O)(=O)N2CCOCC2)c1	0.1	.	13%	-5	-13	0.0	-2.4	-15
O=C(NCCCCNC(=O)c1ccc(Br)cc1)c1ccc(Br)cc1	-3.4	0.9	6%	-14	-17	-0.8	1.2	-1
CC(C)(C)OC(=O)NCCCCCNC(=O)c1nc[nH]c1C(=O)N1CCc2ccccc2C1	4.2	3.6	.	5	.	1.4	.	.
COc1ccc(S(=O)(=O)N2CCOCC2)cc1C(=O)NCC(c1ccco1)N1CCCC1 (stereo not given)	1.2	0.5	-6%	3	.	1.9	.	.
O=C(CN1C(=O)NC2(CCCC2)C1=O)NCC1CCCO1 (stereo not given)	0.1	-3.3	24%	5	-5	-0.7	-1.9	-5
O=C(C#Cc1ccccc1)NCc1ccccc1F	-0.4	-7.7	.	.	-22	-1.7	-0.6	-5
CN1CCC(CNC(=O)Nc2csc3ccccc23)CC1	-4.9	-3.9	30%	-5	13	0.3	9.6	7
CC[C@@]1(C(=O)OC)N[C@H](CN(C)C(=O)Nc2ccc(C(F)(F)F)cc2)[C@@H]2C(=O)N(Cc3ccccc3)C(=O)[C@@H]21	4.3	-1.1	.	-7	.	-0.9	.	.
O=C1CS/C(=N/N=C/c2ccccc2OS(=O)(=O)c2ccccc2)N1	3.1	.	-1%	-2	-8	0.4	-2.7	-2
COc1cc(C2N(c3ccc(F)cc3)C(=O)C3CCCN32)cc(OC)c1OC (stereo not given)	2.5	0.5	9%	-2	7	0.6	2.2	-15
CC(C)CC(=O)Nc1sc2c(c1C#N)CC(C)(C)NC2(C)C	-2.6	.	2%	-5	-1	-1.3	8.9	4
CCOC(=O)Cc1csc(NC(=O)c2ccc(NC(C)=O)cc2)n1	1.3	.	1%	-2	5	-0.5	3.2	11
O=C(c1cc([N+](=O)[O-])ccc1Cl)N1CCN(Cc2ccccc2)CC1	3.8	0.8	.	2	-2	-0.2	-0.3	-3
O=C(NCc1ccc(F)cc1)C(C(=O)NCc1ccc(F)cc1)c1ncc(C(F)(F)F)cc1Cl	0.2	-9.6	3%	3	-2	-0.4	2.3	13
O=C(Cn1c(=O)oc2ccccc21)Nc1nc(-c2ccccc2)cs1	1.0	1.2	9%	-1	0	-1.4	-2.2	-31
COc1ccc(Br)cc1/C=N/N1CCN(Cc2ccccc2)CC1	1.6	.	9%	-4	20	-0.5	2.8	0
COC(=O)Cc1c(C)c2ccc(OCC(=O)NCc3ccc4c(c3)OCO4)cc2oc1=O	-0.4	.	-11%	0	-1	-0.6	?	30
COc1ccccc1CNS(=O)(=O)c1csc(C(N)=O)c1	-5.9	-0.9	.	-3	10	-0.1	-2.4	1
COCCNC(=O)c1cc2nc3c(c(C(F)(F)F)n2n1)CCc1ccccc1-3	6.9	-0.2	2%	6	-2	0.8	0.1	3
COc1ccc(S(=O)(=O)N2CCN(C3CCCC(C)C3)CC2)cc1 (stereo not given)	-0.1	-0.8	.	1	3	0.8	-1.9	-10
O=S(=O)(NCC1CCCO1)c1cccc(S(=O)(=O)N2CCCC2)c1 (stereo not given)	1.3	.	-7%	.	-13	-0.2	-4.2	3
Cc1ccc(C(=O)C(SC(C)(C)C)n2cncn2)cc1 (stereo not given)	3.3	-15	-8%	0	36	0.3	-1.4	1
COC(=O)C1=C(NC(=O)c2ccccc2[N+](=O)[O-])CCS1	-0.5	9.6	.	-8	-3	-0.4	1.1	-2
COc1ccc(-n2cc(-c3ccc(OC)c(OC)c3)[nH]c2=S)cc1	-3.7	-27	15%	1	-4	-1.7	2.3	-1
O=c1c(N2CCOCC2)c(N2CCOCC2)c1=O	4.8	.	.	0	-12	0.3	3.3	-11
COc1ccc2cc(C(=O)O)n(CC(=O)c3ccccc3)c2c1	-7.2	0.1	-7%	-8	0	0.6	8.5	-4
CCOC(=O)c1nn(-c2ccc(Cl)cc2C)ccc1=O	7.4	-3.3	16%	.	-2	-0.4	1.5	-1
CCCc1cc(C(=O)OC)c(NC(=O)c2cc(C)on2)s1	-4.8	.	3%	.	7	0.9	-3.3	-3
Cc1nc2nc(SCC(=O)NCCCN3CCCCCC3)nn2c(C)c1Cc1ccccc1	3.3	0.4	.	-9	14	-0.1	1.6	-5
COCCNC(=O)C(c1ccc(C)o1)N(C(=O)c1snc(C(N)=O)c1N)c1cc(C)cc(C)c1 (stereo not given)	-3.2	.	25%	0	-2	0.3	-3.2	7
CCOC(=O)CC(=O)CSc1nc2ccccc2c(=O)n1-c1ccc(C(=O)N2CCOCC2)cc1	2.7	.	0%&-4%	-1	5	1.9	-2.3	13
CC1=C(OC(=O)c2ccc(Br)cc2)C(C)(C)C(c2ccccc2)OC1=O (stereo not given)	-2.4	.	21%	.	2	0.1	1.7	2
COc1ccc(CNC(=O)C2CCN(c3nn4c(=O)cc(C)nc4s3)CC2)cc1	-2.4	1.1	.	-1	0	-0.7	-0.1	-13
COCCn1c(-c2ccc(Br)cc2)csc1=Nc1cccnc1	-3.7	13	.	.	.	0.3	.	-37
O=C(NNc1cccc(Cl)n1)c1cccnc1Cl	9.3	-0.1	.	-1	-10	?	-2.7	3
COC(=O)C1C(=O)c2c([nH]c(C(=O)OCC3CCCO3)c2C)CC1C (stereo not given)	-2.1	-4.9	6%	-2	-13	-0.9	0.0	6
c1ccc(C2=Nn3c(nnc3-c3ccccn3)SC2)cc1	0.5	.	0%	-8	0	-0.7	-4.2	39
COCC(C)NCc1ccc(C)cc1C (stereo not given)	-0.3	.	5%	1	-4	0.0	6.7	?
Cc1cc(C)n(-c2ccc(C(=O)OCC(=O)c3c(N)n(C)c(=O)n(C)c3=O)cc2)n1	4.5	.	-3%	-1	3	0.9	3.2	6
CN(CC(=O)Nc1ccc(F)cc1)C(=O)c1cccc(S(=O)(=O)N2CCN(c3ccc(F)cc3)CC2)c1	-1.7	1.2	-2%	21	11	-0.6	-2.3	-3
COC(=O)C1=C(C(=O)OC)[C@@H]2N(C)c3ccc(OC)cc3[C@@]23C[C@@H](C(=O)OC)N=C3N1	0.7	-29	.	2	-6	-0.1	5.3	6
CCOC(=O)C1=C(COC(=O)c2ccc(OC)c(OC)c2OC)NC(=O)NC1C (stereo not given)	2.3	-0.8	8%	-1	-13	-0.1	6.4	-4
Additional entries:
SMILES	LANA-H2B inh	MLL AF4-AF9 inh	Vif A3G	Beta apoptosis	T cruzi repl	A1 inh	RanGTP-Imp inh	Calb FLC
Cc1cccc(C(=O)O[C@H]2[C@H](Cc3ccccc3)NS(=O)(=O)[C@H]3CC4C=C[C@]23O4)c1	-3.2	2.1	.	-2	.	0.8	.	.
Cc1ccc(S(=O)(=O)CCC(=O)OC2CC(C)OC2=O)cc1 (stereo not given)	4.4	0.4	.	-4	.	0.7	.	.
CC(=O)c1c(C)[nH]c(C(=O)OCC(=O)NCc2ccc3c(c2)OCO3)c1C	-0.3	-7.1	-7%	1	.	0.3	.	.
COc1ccccc1C(=O)Nc1ccnn1C1CCN(C(=O)c2cnsn2)CC1	0.0	2.0	.	3	-1	0.3	8.6	-9
COc1ccc2nc(SCC(=O)O)nc(C)c2c1	-3.5	.	-6%	-2	.	0.2	.	.
COc1ccccc1-c1oc2ccccc2c1C#CC(C)(C)O	0.8	1.0	.	-6	.	-0.9	.	.
CC(C)(C)NS(=O)(=O)c1ccc(N2C(=O)c3ccccc3C2=O)cc1	-2.1	.	7%	.	-18	-0.3	-2.8	-15
O=C(NN1C(=O)NC2(CCCCC2)C1=O)c1cc2ccccc2o1	-1.9	0.4	.	1	.	0.7	.	.
Cc1[nH]c2ccccc2c1/C=N/NC(=O)c1cccc(S(=O)(=O)Nc2cccc(C(F)(F)F)c2)c1	-0.7	-0.8	-8%	-6	-8	-0.6	?	2
COc1cccc(CNC(=O)C2CCN(S(=O)(=O)c3ccccc3)CC2)c1	-3.0	.	3%	.	1	0.5	5.4	-12
CCN(CC(=O)Nc1ccccc1OC)CC(=O)Nc1c(Cl)ccc(C)c1Cl	1.9	5.4	5%	1	.	-0.2	.	4
CC(NC(=O)Cc1ccccc1)C(c1ccccc1)N1CCOCC1 (stereo not given)	1.3	-0.3	.	-10	-9	1.2	-1.8	-9
COC(=O)Cn1c(N2CCCC2)nc2c1c(=O)n(C)c(=O)n2C	-6.0	0.0	.	2	-11	0.3	-2.8	-3
CCc1ccccc1NC(=O)c1cccs1	-1.7	.	6%	0	-10	0.2	-3.6	2
CCc1nnc(NC(=O)c2ccc(OC)c(S(=O)(=O)N3CCCC3)c2)s1	2.1	-0.1	.	4	.	-0.1	.	.
C=CCC(C)(NCc1ccccc1)c1ccc(C)cc1 (stereo not given)	0.4	0.4	1%	-14	-4	1.3	3.7	27
Cc1ccc(Cl)cc1N1CCN(S(=O)(=O)c2cn(C)cn2)CC1	-2.5	-2.1	.	-1	7	-0.5	4.2	5
Cc1cc(/C=C2\C(=N)N3N=C(CC(=O)N4CCOCC4)SC3=NC2=O)c(C)n1Cc1ccccc1	-0.4	-1.4	-2%	1	-8	0.8	10	35
COc1ccc(OC)c(S(=O)(=O)NCC(c2ccco2)N2CCc3ccccc3C2)c1 (stereo not given)	3.8	1.5	1%	6	3	0.2	-0.3	-7
COc1ccc(CCN2C(=O)c3[nH]nc(-c4ccccc4O)c3C2c2ccccc2)cc1OC (stereo not given)	1.1	.	3%	5	0	-0.7	-3.4	33
CN[C@H]1CCc2cc(OC)c(OC)c(OC)c2-c2ccc(OC)c(=O)cc21	4.4	-2.3	.	60	1	1.3	2.9	-4
CC(=O)Nc1ncnc2c1c(-c1ccc(Cl)cc1)nn2C(C)(C)C	2.9	-4.4	.	-1	61*	3.8	3.7	102*
O=C(CCc1nnc2ccc(N3CCOCC3)nn12)Nc1ccc(F)cc1F	3.0	0.8	.	-1	-25	-0.2	4.0	-3
CCC(=O)Nc1cccc(NC(=O)CN2CCN(c3ccccc3OC)CC2)c1	2.9	.	1%	-2	6	-0.2	-2.9	-3
COc1cccc(CN(C)C(=O)CCN(c2ccccc2)S(=O)(=O)c2ccc(C)cc2)c1OC	3.3	3.4	-3%	.	21	-0.8	-3.6	-21
